Source: PubChem
HIV Env fusion: blocks HIV Env-driven cell-cell fusion. HeLa-JRFL Env/CEM21 cell fusion, luciferase. inhibition, % at 12.3 µM. 360,000 tested, 1.1% active. AID 651610;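 active = mean replicate inhibition score of at least 50 and every replicate individually at or above 50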;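 also: 0% = plate neutral controls and 100% = maraviroc near 300 nM; one replicate is shown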
UUG fidelity: yeast start codon fidelity modulation. activity score, % at 18.7 µM. S. cerevisiae UUG-firefly luciferase reporter, luminescence/redox ratio. 350,000 tested, 0.13% active;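 active = replicate mean at a twofold rise or more, about +100% in these data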;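 also: firefly luciferase made from a UUG start codon reports start codon fidelity; reporter light over untreated wells divided by growth signal over untreated wells; some hits fall short of that in this replicate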
Numbers without * were called inactive; [ ] = dose if it differs, or a comment.

Start of the data: the first 16 compounds, ahead of the listing:
SMILES	HIV Env fusion	UUG fidelity
C[C@H](CO)N1C[C@H](C)[C@H](CN(C)Cc2cncnc2)Oc2ncc(-c3cccc(F)c3)cc2C1=O	24.1[16.7 µM]	-3.6
C[C@H]1CCCCO[C@@H](CN(C)C(=O)Nc2ccc(C(F)(F)F)cc2)[C@@H](C)CN([C@@H](C)CO)C(=O)c2cc(NC(=O)Nc3ccc(C(F)(F)F)cc3)ccc2O1	46.0[16.7 µM]	-16.0
C[C@@H]1CN([C@H](C)CO)C(=O)c2cc(C#Cc3ccccc3F)cnc2O[C@H]1CN(C)C(=O)C1CC1	4.9[16.7 µM]	10.3
C[C@@H]1CN([C@H](C)CO)C(=O)c2cc(C#CCN(C)C)cnc2O[C@H]1CN(C)Cc1ccc(C(=O)O)cc1	10.8[16.7 µM]	7.7
C[C@@H]1CN([C@@H](C)CO)C(=O)c2cccc(NC(=O)c3cnccn3)c2O[C@H]1CN(C)C(=O)NC1CCCCC1	7.0[16.7 µM]	-2.8
COCC(=O)Nc1ccc2c(c1)C(=O)N(C)[C@H]1CC[C@@H](CC(=O)NCc3ccc(OC)cc3)O[C@H]1CO2	-1.3[16.7 µM]	-5.2
COc1ccc(CN(C)C[C@H]2OCCCC[C@@H](C)Oc3ccc(NS(=O)(=O)c4ccc(C)cc4)cc3C(=O)N([C@H](C)CO)C[C@H]2C)cc1	-17.3[16.7 µM]	26.0
CC(C)NC(=O)N[C@H]1CC[C@@H](CCNC(=O)C2CCCC2)O[C@@H]1CO	-5.2[16.7 µM]	-6.3
C[C@@H]1CN([C@@H](C)CO)S(=O)(=O)c2ccc(-c3ccccc3F)cc2O[C@@H]1CN(C)CC1CC1	-20.1[16.7 µM]	0.0
O=C(NCC[C@@H]1CC[C@@H](NC(=O)C2CCCCC2)[C@@H](CO)O1)Nc1ccc(Cl)cc1	-0.8[16.7 µM]	5.5
CC(=O)Nc1ccc2c(c1)C(=O)N(C)[C@H]1CC[C@H](CC(=O)NC3CCCCC3)O[C@@H]1CO2	-2.9[16.7 µM]	-3.5
C[C@H](CO)N1C[C@H](C)[C@@H](CN(C)Cc2ccc3c(c2)OCO3)Oc2c(NC(=O)Nc3ccc4c(c3)OCO4)cccc2C1=O	-0.7[16.7 µM]	-6.0
CCCNC(=O)N(C)C[C@H]1Oc2cc(-c3ccccc3)ccc2S(=O)(=O)N([C@H](C)CO)C[C@@H]1C	-36.1[16.7 µM]	-0.8
CC(C)NC(=O)N(C)C[C@H]1OCCCC[C@H](C)Oc2ccc(NC(=O)Nc3ccc(C(F)(F)F)cc3)cc2C(=O)N([C@@H](C)CO)C[C@H]1C	-8.7[16.7 µM]	15.1
COc1ccc(S(=O)(=O)Nc2ccc3c(c2)CC(=O)N([C@H](C)CO)C[C@H](C)[C@@H](CN(C)C(=O)NC(C)C)O3)cc1	-23.1[16.7 µM]	2.0
C[C@@H]1CN([C@H](C)CO)C(=O)Cc2cc(NC(=O)c3ccncc3)ccc2O[C@@H]1CN(C)C(=O)Nc1ccc(C(F)(F)F)cc1	-4.9[16.7 µM]	-16.4

Results, previewed entries included:
SMILES	HIV Env fusion	UUG fidelity
C[C@H](CO)N1C[C@H](C)[C@H](CN(C)Cc2cncnc2)Oc2ncc(-c3cccc(F)c3)cc2C1=O	24.1[16.7 µM]	-3.6
C[C@H]1CCCCO[C@@H](CN(C)C(=O)Nc2ccc(C(F)(F)F)cc2)[C@@H](C)CN([C@@H](C)CO)C(=O)c2cc(NC(=O)Nc3ccc(C(F)(F)F)cc3)ccc2O1	46.0[16.7 µM]	-16.0
C[C@@H]1CN([C@H](C)CO)C(=O)c2cc(C#Cc3ccccc3F)cnc2O[C@H]1CN(C)C(=O)C1CC1	4.9[16.7 µM]	10.3
C[C@@H]1CN([C@H](C)CO)C(=O)c2cc(C#CCN(C)C)cnc2O[C@H]1CN(C)Cc1ccc(C(=O)O)cc1	10.8[16.7 µM]	7.7
C[C@@H]1CN([C@@H](C)CO)C(=O)c2cccc(NC(=O)c3cnccn3)c2O[C@H]1CN(C)C(=O)NC1CCCCC1	7.0[16.7 µM]	-2.8
COCC(=O)Nc1ccc2c(c1)C(=O)N(C)[C@H]1CC[C@@H](CC(=O)NCc3ccc(OC)cc3)O[C@H]1CO2	-1.3[16.7 µM]	-5.2
COc1ccc(CN(C)C[C@H]2OCCCC[C@@H](C)Oc3ccc(NS(=O)(=O)c4ccc(C)cc4)cc3C(=O)N([C@H](C)CO)C[C@H]2C)cc1	-17.3[16.7 µM]	26.0
CC(C)NC(=O)N[C@H]1CC[C@@H](CCNC(=O)C2CCCC2)O[C@@H]1CO	-5.2[16.7 µM]	-6.3
C[C@@H]1CN([C@@H](C)CO)S(=O)(=O)c2ccc(-c3ccccc3F)cc2O[C@@H]1CN(C)CC1CC1	-20.1[16.7 µM]	0.0
O=C(NCC[C@@H]1CC[C@@H](NC(=O)C2CCCCC2)[C@@H](CO)O1)Nc1ccc(Cl)cc1	-0.8[16.7 µM]	5.5
CC(=O)Nc1ccc2c(c1)C(=O)N(C)[C@H]1CC[C@H](CC(=O)NC3CCCCC3)O[C@@H]1CO2	-2.9[16.7 µM]	-3.5
C[C@H](CO)N1C[C@H](C)[C@@H](CN(C)Cc2ccc3c(c2)OCO3)Oc2c(NC(=O)Nc3ccc4c(c3)OCO4)cccc2C1=O	-0.7[16.7 µM]	-6.0
CCCNC(=O)N(C)C[C@H]1Oc2cc(-c3ccccc3)ccc2S(=O)(=O)N([C@H](C)CO)C[C@@H]1C	-36.1[16.7 µM]	-0.8
CC(C)NC(=O)N(C)C[C@H]1OCCCC[C@H](C)Oc2ccc(NC(=O)Nc3ccc(C(F)(F)F)cc3)cc2C(=O)N([C@@H](C)CO)C[C@H]1C	-8.7[16.7 µM]	15.1
COc1ccc(S(=O)(=O)Nc2ccc3c(c2)CC(=O)N([C@H](C)CO)C[C@H](C)[C@@H](CN(C)C(=O)NC(C)C)O3)cc1	-23.1[16.7 µM]	2.0
C[C@@H]1CN([C@H](C)CO)C(=O)Cc2cc(NC(=O)c3ccncc3)ccc2O[C@@H]1CN(C)C(=O)Nc1ccc(C(F)(F)F)cc1	-4.9[16.7 µM]	-16.4
C[C@H]1CN([C@@H](C)CO)C(=O)c2cccc(NS(=O)(=O)c3ccc(Cl)cc3)c2O[C@@H]1CN(C)Cc1ccc(Cl)c(Cl)c1	-0.1[16.7 µM]	6.0
C[C@@H]1CN([C@H](C)CO)C(=O)c2cc(NS(=O)(=O)c3cn(C)cn3)ccc2O[C@@H](C)CCCCO[C@H]1CN(C)Cc1ccncc1	-2.2[16.7 µM]	-7.5
C[C@@H]1CN([C@H](C)CO)S(=O)(=O)c2ccc(C#Cc3cccnc3)cc2O[C@@H]1CN(C)C(=O)CN(C)C	-28.4[16.7 µM]	9.1
C[C@@H]1CN([C@H](C)CO)C(=O)c2cccc(N(C)C)c2O[C@H]1CN(C)S(=O)(=O)c1cccs1	8.6[16.7 µM]	0.1
C[C@@H]1CN([C@H](C)CO)C(=O)c2cc(NS(=O)(=O)c3ccccc3)ccc2O[C@@H](C)CCCCO[C@@H]1CN(C)Cc1ccccc1	8.2[16.7 µM]	2.3
Cc1noc(C)c1NC(=O)Nc1ccc2c(c1)C(=O)N([C@H](C)CO)C[C@@H](C)[C@@H](CN(C)CC1CCCCC1)OCCCC[C@@H](C)O2	-36.5[16.7 µM]	19.1
C[C@H](CO)N1C[C@H](C)[C@H](CN(C)C(=O)NC2CCCCC2)Oc2ncc(-c3cccc(F)c3)cc2C1=O	-14.0[16.7 µM]	21.0
COc1ccc(NC(=O)N(C)C[C@@H]2OCCCC[C@@H](C)Oc3ccc(NC(=O)Cc4ccccc4)cc3C(=O)N([C@H](C)CO)C[C@H]2C)cc1	-58.2[16.7 µM]	-1.7
Cc1ccc(S(=O)(=O)N(C)C[C@@H]2OCCCC[C@H](C)Oc3ccc(N(C)C)cc3C(=O)N([C@H](C)CO)C[C@H]2C)cc1	2.3[16.7 µM]	10.6
(next part)
SMILES	HIV Env fusion	UUG fidelity
Cc1noc(C)c1NC(=O)N[C@H]1C=C[C@@H](CC(=O)Nc2ccccc2)O[C@H]1CO	-15.2[16.7 µM]	2.0
CCO[C@@H]1OC(C(=O)N2CCN(Cc3ccc4c(c3)OCO4)CC2)=C[C@H](c2ccccc2)[C@H]1CCCO	8.8[16.7 µM]	12.9
C[C@@H]1CN([C@H](C)CO)C(=O)c2cccc(NC(=O)Nc3ccc4c(c3)OCO4)c2O[C@H]1CN(C)S(=O)(=O)c1ccccc1	17.7[16.7 µM]	16.3
C[C@H](CO)N1C[C@H](C)[C@H](CN(C)C(=O)Nc2ccc(F)cc2)Oc2c(NS(=O)(=O)c3cn(C)cn3)cccc2C1=O	-0.7[16.7 µM]	-7.6
C[C@@H]1CCCCO[C@@H](CN(C)CC2CC2)[C@H](C)CN([C@H](C)CO)C(=O)c2cc(NC(=O)Nc3ccc(F)cc3)ccc2O1	-21.7[16.7 µM]	24.3
O=C(N[C@@H]1CC[C@H](CCn2cc(Cc3ccccc3)nn2)O[C@H]1CO)c1cnccn1	-20.3[16.7 µM]	-20.1
Cc1ccc(S(=O)(=O)N[C@@H]2CC[C@@H](CCn3cc(-c4ccccc4F)nn3)O[C@H]2CO)cc1	-14.4[16.7 µM]	11.2
C[C@H](O)C#Cc1ccc2c(c1)O[C@@H](CN(C)Cc1ccccc1)[C@@H](C)CN([C@H](C)CO)S2(=O)=O	-11.2[16.7 µM]	3.2
CCC(=O)N[C@@H]1CC[C@@H](CCn2cc(CN(C)C)nn2)O[C@H]1CO	3.0[16.7 µM]	-12.3
C[C@@H]1CN([C@H](C)CO)C(=O)c2cc(C#Cc3ccccn3)cnc2O[C@@H]1CN(C)Cc1cncnc1	2.3[16.7 µM]	-14.5
C[C@H]1CN([C@@H](C)CO)C(=O)c2cccc(NC(=O)c3ccc(-c4nccs4)cc3)c2O[C@@H]1CN(C)S(=O)(=O)c1cn(C)cn1	4.5[16.7 µM]	3.3
Cc1ccc(S(=O)(=O)Nc2ccc3c(c2)C(=O)N([C@H](C)CO)C[C@@H](C)[C@@H](CN(C)CC2CCCCC2)OCCCC[C@@H](C)O3)cc1	7.5[16.7 µM]	25.4
CCCNC(=O)N(C)C[C@@H]1Oc2cc(-c3ccc(C)cc3)ccc2S(=O)(=O)N([C@H](C)CO)C[C@@H]1C	-21.1[16.7 µM]	-1.1
COc1ccc(NC(=O)N(C)C[C@H]2Oc3ccc(NC(=O)c4ccncc4)cc3C(=O)N([C@H](C)CO)C[C@H]2C)cc1	14.0[16.7 µM]	-4.6
C[C@@H]1CN([C@@H](C)CO)C(=O)c2cc(NS(=O)(=O)c3cn(C)cn3)ccc2O[C@@H](C)CCCCO[C@H]1CN(C)CC1CCCCC1	12.6[16.7 µM]	-4.6
CNC[C@H]1Oc2ccc(NC(=O)CCN3CCOCC3)cc2CC(=O)N([C@H](C)CO)C[C@H]1C	13.8[16.7 µM]	4.5
C[C@H](CO)N1C[C@H](C)[C@H](CN(C)C(=O)Nc2ccc(F)cc2)OCCCC[C@H](C)Oc2ccc(NS(=O)(=O)c3cccs3)cc2C1=O	-14.7[16.7 µM]	-2.7
NCC[C@@H]1CC[C@@H](NC(=O)C2CCCC2)[C@@H](CO)O1	3.9[16.7 µM]	-7.1
C[C@H]1CN([C@@H](C)CO)C(=O)c2cc(-c3ccc(C#N)cc3)cnc2O[C@@H]1CN(C)C(=O)c1cccnc1	8.3[16.7 µM]	-4.3
CCC(=O)N[C@@H]1CC[C@@H](CC(=O)NCc2ccccc2OC)O[C@@H]1CO	-1.2[16.7 µM]	-8.3
CC(=O)N(C)C[C@H]1Oc2ncc(C#CC3(O)CCCC3)cc2C(=O)N([C@@H](C)CO)C[C@H]1C	-19.9[16.7 µM]	-5.9
CNC(=O)C[C@H]1CC[C@H]2[C@H](COc3ccc(NC(=O)Nc4ccccc4OC)cc3C(=O)N2C)O1	-3.2[16.7 µM]	24.9
COc1ccc(S(=O)(=O)N(C)C[C@@H]2Oc3ccc(NC(=O)C4CCCCC4)cc3C(=O)N([C@@H](C)CO)C[C@@H]2C)cc1	-150.2[16.7 µM]	6.1
CNC(=O)C[C@H]1CC[C@@H]2[C@@H](COc3ccc(NS(=O)(=O)c4ccc(F)cc4)cc3C(=O)N2C)O1	6.7[16.7 µM]	9.6
COc1ccccc1CNC(=O)C[C@H]1C[C@H]2c3cc(NC(=O)NC4CCCC4)ccc3O[C@H]2[C@@H](CO)O1	-3.3[16.7 µM]	-9.5

Pulled one by one from above (2):
SMILES	HIV Env fusion	UUG fidelity
CC(=O)N(C)C[C@H]1Oc2ncc(C#CC3(O)CCCC3)cc2C(=O)N([C@@H](C)CO)C[C@H]1C	-19.9[16.7 µM]	-5.9
Cc1noc(C)c1NC(=O)N[C@H]1C=C[C@@H](CC(=O)Nc2ccccc2)O[C@H]1CO	-15.2[16.7 µM]	2.0

Other records:
SMILES	HIV Env fusion	UUG fidelity
O=C(CCN1CCCCC1)N[C@@H]1CC[C@@H](CCn2cc(-c3ccc(F)cc3)nn2)O[C@@H]1CO	7.2[16.7 µM]	3.7
CNC(=O)C[C@H]1CC[C@@H]2[C@H](COc3ccc(NC(=O)Nc4cccc(F)c4)cc3C(=O)N2C)O1	13.7[16.7 µM]	8.3
Cc1ccc(S(=O)(=O)N(C)C[C@H]2OCCCC[C@H](C)Oc3ccc(NC(=O)NC(C)C)cc3C(=O)N([C@H](C)CO)C[C@H]2C)cc1	-11.7[16.7 µM]	2.9
C[C@H]1CN([C@@H](C)CO)S(=O)(=O)c2ccc(-c3cccc(F)c3)cc2O[C@H]1CN(C)S(=O)(=O)c1ccccc1	90.5*[16.7 µM]	-1.9
C[C@H](CO)N1C[C@H](C)[C@@H](CN(C)Cc2ccc(Cl)c(Cl)c2)Oc2c(cccc2N(C)C)C1=O	22.6[16.7 µM]	-12.3
C[C@H]1CN([C@@H](C)CO)C(=O)c2cc(C3=CCCCC3)cnc2O[C@H]1CN(C)Cc1ccccn1	17.3[16.7 µM]	-17.7

This is a subset. The share of hits here may be higher or lower than overall.
